Screens from PubChem BioAssay.
NS1 inh – blocks influenza NS1 protein function; S. cerevisiae slowed by influenza A NS1, growth recovery by OD600; Potency, µM (highest dose often 46.1 µM), inactives show at the top dose activity, positive = more growth; 0.4% of 270,000 active; AID 2326; active means well fitted rising curve with a large enough effect; inconclusive means small, poorly fitted or top-dose-only effect; inactive means no such curve, though single readings can be large or run the other way; note: nearly all actives have a fitted effect of over 50% in size
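Read-out: OD600 growth recovery of NS1-expressing budding yeast. Cells grown overnight at 30C in -URA glucose medium, washed, resuspended and diluted 1:100 in 2% galactose assay medium, pH 6.0. Same strain lacking NS1 served as positive control.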
2A StopGo – FMDV 2A StopGo reporter, luciferase signal; human cells with a luciferase reporter of 2A StopGo recoding; control for the full effect not named in the record; Potency, µM (series often up to 57.9 µM), inactives show at the top dose signal change, negative = less light; 1.2% of 410,000 active; AID 1159524; active = well fitted falling curve with a large enough effect; inconclusive = small, poorly fitted or top-dose-only effect; inactive = no such curve, though single readings can be large or run the other way; tested in HEK293T cells; note: % is set by controls: 0 for no effect and ±100 for the full control effect; nearly all actives have a fitted effect of over 45% in size; luciferase light after 4 h
RE007 growth inh – less growth of the S. pombe RE007 Vpr strain; Potency, µM (doses to about 92.2 µM), for inactives: top-dose activity change, negative = less growth; AID 651644; S. pombe RE007 Vpr strain, BacTiter-Glo ATP luminescence, 24 h; control for the full effect not named in the record; 0.21% of 360,000 active; active = well fitted falling curve with a large enough effect; inconclusive = small, poorly fitted or top-dose-only effect; inactive = no such curve, though single readings can be large or run the other way;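 note: % is set by controls: 0 for no effect and ±100 for the full control effect; nearly all actives have a fitted effect of over 50% in size; the assay follows cell death caused by Vpr and the record does not say whether a fall means rescue or toxicity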
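Fission yeast strain RE007, carrying one chromosomally integrated HIV-1 vpr copy, was seeded at OD 0.01 in PMG+AL medium with 23 nL pinned compound. After 24 h at 30 °C and 99% humidity, viability was read by BacTiter-Glo luminescence.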
Cruzain inh Det – cruzain (T. cruzi) inhibition with detergent. P25779. purified cruzain, Z-FR-AMC fluorescence, 0.01% Triton. Potency, µM, without a hit: max response, negative = inhibition, actives largely listed as inhibitors. 0.43% of 200,000 active;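 note: plate controls were neutral wells for no effect and buffer without enzyme for full effect; nearly all actives have a fitted effect of over 40% in size; top concentration of the series not given in the record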
Target sequence (P25779 123-467 limits assumed): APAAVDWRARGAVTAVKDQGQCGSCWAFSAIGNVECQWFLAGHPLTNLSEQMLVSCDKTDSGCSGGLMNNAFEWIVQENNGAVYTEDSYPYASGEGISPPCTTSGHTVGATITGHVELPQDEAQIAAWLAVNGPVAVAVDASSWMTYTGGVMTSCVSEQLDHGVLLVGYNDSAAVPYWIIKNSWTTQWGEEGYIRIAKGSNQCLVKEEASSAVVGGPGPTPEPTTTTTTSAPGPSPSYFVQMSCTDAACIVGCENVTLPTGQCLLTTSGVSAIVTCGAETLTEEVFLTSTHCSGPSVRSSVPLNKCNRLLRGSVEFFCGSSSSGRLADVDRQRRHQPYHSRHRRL
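In this qHTS format, compounds are incubated with 1.5 nM cruzain for 15 min at room temperature before 2 uM Z-FR-AMC is added. Release of AMC is followed at 360/450 nm, and progress is taken as the 60 s fluorescence difference.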
LASV entry inh – Lassa virus entry inhibition; Lassa virus pseudotype entry inhibition, cell reporter; control for the full effect not named in the record; Potency, µM (titrated, usually from 37.9 µM), inactives show at the top dose activity change, negative = inhibition, actives largely listed as inhibitors; 1.2% of 300,000 active; AID 540256; active means well fitted inhibition curve with a large enough effect; inconclusive means small, poorly fitted or top-dose-only effect, or effect the other way; inactive means flat fitted curve, though single readings scatter; tested in HEK293 cells; note: % is set by controls: 0 for no effect and ±100 for the full control effect; nearly all actives have a fitted effect of over 50% in size; luciferase read-out
Cruzain noTriton – inhibitors of Trypanosoma cruzi cruzain without detergent; AID 1476; Potency, µM, for the others: max response, negative = inhibition, hits mostly inhibitors; purified cruzain, Z-FR-AMC fluorescence, no detergent; 2.3% of 200,000 active; P25779;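 note: plate controls were enzyme without inhibitor for no effect and buffer without enzyme for full effect; nearly all actives have a fitted effect of over 40% in size; top concentration of the series not given in the record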
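Purified cruzain at 1.5 nM, pre-incubated 15 min with compound at room temperature in 100 mM sodium acetate pH 5.5, 5 mM DTT, 0.00005% Triton X-100. Reaction started with 2 uM Z-FR-AMC; AMC fluorescence increase over 60 s gives rate.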
SARS PLpro yeast – SARS-CoV PLP inhibition in yeast; Potency, µM (doses to about 32.9 µM), inactives show at the top dose activity, positive = growth rescue; S. cerevisiae expressing SARS-CoV PLpro, growth rescue; control for the full effect not named in the record; 0.19% of 330,000 active; AID 485353; active means well fitted rising curve with a large enough effect; inconclusive means small, poorly fitted or top-dose-only effect; inactive means no such curve, though single readings can be large or run the other way; note: 0% is about no effect; nearly all actives have a fitted effect of over 55% in size; growth read by luminescence after 48 h
MARV entry inh – blocks Marburg virus binding to or entry into cells; Marburg virus pseudotyped entry inhibition, cell reporter; control for the full effect not named in the record; about a third of the inactives were read at about 46 µM; Potency, µM (highest dose often 37.8 µM), for the others: at the top dose activity change, negative = inhibition, actives largely listed as inhibitors; 1.8% of 300,000 active; active = well fitted inhibition curve with a large enough effect; inconclusive = small, poorly fitted or top-dose-only effect, or effect the other way; inactive = flat fitted curve, though single readings scatter; tested in HEK293 cells; about a fifth of its hits are not listed in these tables; note: % is set by controls: 0 for no effect and ±100 for the full control effect; luciferase read-out
* marks the source's active call; other numbers are inactive results; ? = inconclusive; · = not tested or not shown; [ ] = remark or other dose. Unless noted, calls come from the whole dose curve; as a rule, active = well fitted curve in the direction sought with a large enough effect; inconclusive = small, poorly fitted or top-dose-only effect, or another doubt; inactive = no such curve, though single readings can be large; an effect the other way counts as inactive or inconclusive. Potency is the fitted concentration of half-maximal effect. Compounds were not picked by outcome; any-hit rate near 4.7%.

entry | structure | NS1 inh | 2A StopGo | RE007 growth inh | Cruzain inh Det | LASV entry inh | Cruzain noTriton | SARS PLpro yeast | MARV entry inh
1 | COc1ccccc1NC(=O)CSC1=Nc2ccccc2C2=NC(CCC(=O)NCCc3ccccc3)C(=O)N12 (stereo unspecified) | · | ? | · | -0.6% | 1%[46.1 µM] | -5% | · | ·
2 | O=C(NCc1nnc(SCC(=O)N2CCCC2)o1)c1ccco1 | · | -12% | 11% | · | 0% | · | 1% | -1%
3 | CSc1nc2c(c(=O)[nH]1)C(c1ccc(F)cc1)CC(=O)N2 (stereo unspecified) | · | -6% | -14% | · | 25%[46.1 µM] | · | 0% | 9%[46.1 µM]
4 | COC(=O)c1cc2sc(Cl)cc2n1CC(=O)Nc1cc(C)cc(C)c1 | · | -1% | · | -3.6% | · | -12% | · | 6%[46.1 µM]
5 | COc1cc(C(=O)Nc2nonc2-c2ccc(C)c(C)c2)cc(OC)c1OC | · | 0% | · | -4.3% | 6%[46.1 µM] | -7% | · | 8%[46.1 µM]
6 | CCOc1ccc(S(=O)(=O)N2CCN(C)CC2)cc1NC(=O)c1ccccc1F | 24% | 42%[activator] | 70% | · | · | · | 16% | ?
7 | Fc1ccc(F)c(Nc2c3c(nc4ccc(Cl)cc24)CCC3)c1 | · | ? | · | -12% | -7%[46.1 µM] | -8% | · | ?
8 | COc1ccc(-c2cc(C(=O)Nc3cccc(O)c3)no2)cc1 | -8% | 20µM* | -5% | · | · | · | -3% | ·
9 | COc1ccc(NC(=O)C2=C(C)Nc3c(C(=O)Nc4ccc(C)cc4)cnn3C2c2cccc(Cl)c2)cc1 (stereo unspecified) | · | -9% | · | -4.2% | -16%[46.1 µM] | 16µM* | · | ·
10 | O=C(Cn1ccc2ccccc2c1=O)N1CCN(Cc2ccc3c(c2)OCO3)CC1 | 4% | ? | -11% | 3.0% | 7% | -8% | -2% | -3%
11 | Cc1ccc2c(CC(=O)Nc3nc(C)cs3)coc2c1 | -12% | 2% | -14% | -9.3% | 8% | -12% | -1% | -21%
12 | CC12CCC(C(=O)O)(c3nc(C#N)c(C#N)nc31)C2(C)C (stereo unspecified) | -5% | -27% | -4% | 2.1% | 7% | -5% | · | 14%
13 | COc1cccc(C(=O)Oc2cc(C)[nH]c(=O)c2[N+](=O)[O-])c1OC | 11% | -12% | 17% | -1.1% | 6% | 0% | -11% | -15%
14 | Cc1nn2cc(-c3ccccc3)nc2s1 | -52% | · | -16% | 2.3% | ? | -1% | -1% | ?
15 | COc1cccc(NC(=O)c2oc3ccccc3c2NC(=O)COc2ccccc2C)c1 | · | 29% | · | 0.6% | -6%[46.1 µM] | -7% | · | 22%[46.1 µM]
16 | CC12CCCCN1CCCc1c2[nH]c2ccccc12 (stereo unspecified) | -3% | · | 7% | 3.5% | -15% | 1% | -1% | -19%
17 | CCOC(=O)c1[nH]c2ccc(OC)cc2c1NC(=O)CCN1CCC(C)CC1 | -10% | -4% | 6% | 3.4% | 0% | -4% | 6% | 1%[46.1 µM]
18 | Cc1ccc(S(=O)(=O)N2CCC(C(=O)OCC(=O)N3CCCC3=O)CC2)cc1C | · | -11% | 2% | · | -8% | · | 3% | 12%
19 | COc1cccc(NC(=O)CSc2nccn2-c2cccc(OC)c2)c1 | -43% | -4% | 10% | -2.5% | -29% | -1% | -12% | ?
20 | CCCN1C(C(=O)c2ccccc2)=C(OC(=O)C(C)(C)C)c2ccccc2S1(=O)=O | · | -15% | · | -7.7% | ? | 0% | · | -27%[46.1 µM]
21 | CN1C(=O)C(=Cc2sc(=O)n(-c3ccccc3)c2N2CCCCC2)C(=O)N(C)C1=O | -1% | ? | 5% | · | -12% | · | 2% | ?
22 | COCCCN1CC(=O)N2C(c3cccc(OC)c3OC)c3[nH]c4ccccc4c3C[C@H]2C1=O (stereo partly specified) | -7% | 7% | 1% | · | · | · | 0% | ·
23 | COc1ccc(N=Nc2nc(-c3ccccc3)c(-c3ccccc3)[nH]2)cc1 | 11% | -21% | 24% | -2.4% | -5% | 25µM* | -32% | ?
24 | COc1ccc(-c2cn3c(n2)sc2cc(C(=O)NCCCc4ccccc4)ccc23)cc1 | · | 19% | · | -2.0% | 14%[46.1 µM] | 2% | · | ·
25 | CC(C)C(=O)N1CCN(c2ccc(NC(=O)c3ccc4c(c3)OCCO4)cc2Cl)CC1 | -4% | 11µM* | -1% | -6.1% | 26µM* | 0% | -3% | 6.5µM*
26 | CN(Cc1nc(-c2cccnc2)no1)S(=O)(=O)c1ccccc1 | 0% | -6% | -13% | 4.7% | 4% | 2% | -5% | -21%
27 | Cc1cc(C(=O)NCC2COc3ccccc3O2)c2ccccc2n1 (stereo unspecified) | · | ? | -15% | · | 3% | · | -1% | -7%[46.1 µM]
28 | O=C(OCc1ccccc1)/C(=C/c1ccccc1Cl)NC(=O)c1ccco1 | -20% | -10% | 32% | · | -16% | · | -4% | ?
29 | COc1ccc(-c2nc(CN3CCC(C(=O)NC4CCCC4)CC3)c(C)o2)cc1OC | -6% | 5% | 1% | · | · | · | -2% | ·
30 | CN(C)c1ccc(/C=[N+](\[O-])C(C)(C)/C=N/O)cc1 | -9% | -11% | 10% | -11% | 10% | -5% | 1% | -12%
31 | CCCCC(CCCCl)C(=O)Nc1ccccc1 (stereo unspecified) | 1% | -13% | 3% | · | 2% | · | 0% | 2%[46.1 µM]
32 | O=C(NCc1ccco1)/C(=C/c1cccnc1)NC(=O)c1cccc(Br)c1 | -3% | 6% | 2%[3.69 µM] | -4.0% | -1% | -4% | 1% | ?
33 | O=c1ccc2ccc(OCCOc3cccc(Cl)c3)cc2o1 | -13% | 9% | 2% | · | ? | · | -13% | -16%[46.1 µM]
34 | COc1ccc(OC)c(NC(=O)c2cc3c(n(-c4ccc(Cl)cc4)c2=O)CC(C)(C)CC3=O)c1 | · | 5% | · | 0.5% | 4%[46.1 µM] | 0% | · | 0%[46.1 µM]
35 | Cc1ccc(/C=C/c2onc(C)c2S(=O)(=O)N2CCC(C(=O)N3CCN(c4ccccc4F)CC3)CC2)cc1 | · | 0% | · | -2.1% | ? | -7% | · | ·
36 | N#Cc1ccc(OCC(=O)NNC(=S)NC(=O)C2CC2)cc1 | · | 2% | 0% | · | -7% | · | -4% | 25%
37 | CC(C)NC(=O)c1ccc(N2CC3CC(C2)c2cccc(=O)n2C3)c([N+](=O)[O-])c1 (stereo unspecified) | · | 18% | -7% | · | 4% | · | 2% | 0%
38 | FC(F)(F)c1cccc(N2CCN(C(=S)NC3CCCC3)CC2)c1 | 1% | 20µM* | -25% | -6.7% | -26% | -5% | -12% | ?
39 | Cc1ccc2c(=O)cc(C(=O)Nc3ccc(S(=O)(=O)N4CCCCC4)cc3)oc2c1C | · | -24% | · | 3.4% | 25%[46.1 µM] | 21% | · | 4%[46.1 µM]
40 | CCN(CC)C(=O)Cn1cc(S(=O)(=O)CC(=O)Nc2cc(C)on2)c2ccccc21 | · | -16% | 0% | · | 9% | · | · | 22%
41 | CC1CCN(S(=O)(=O)c2ccc3c(ccc(=O)n3CC(=O)NCc3ccccc3Cl)c2)CC1 | · | 5% | · | -6.2% | -12%[46.1 µM] | 0% | · | ·
42 | O=C(NCCc1cn2ccsc2n1)c1cccs1 | 21% | 8% | -10% | -6.6% | · | -17% | -8% | ·
43 | CCOc1c(P(=S)(N(C)C)N(C)C)c(C)nn1-c1ccccc1 | 5% | ? | 1% | -0.3% | -8% | -3% | -12% | -10%
44 | CCCS(=O)(=O)NCc1ccc2c(c1)cc(C)n2C | ? | · | -12% | -0.5% | 7% | -5% | -27% | 5%
45 | COC(=O)c1ccccc1OCCN1CCCCCC1 | 9% | -22% | -3% | · | 2% | · | 1% | -10%[46.1 µM]
46 | O=C(NCCc1csc(-c2ccc(F)cc2)n1)c1c(F)cccc1Cl | · | -4% | · | -15% | ? | -8% | · | ·
47 | O=C(c1ccc(Cl)cc1)N1CCC(c2nc3ccccc3o2)CC1 | · | -7% | · | -6.7% | 8%[46.1 µM] | 6% | · | 0%[46.1 µM]
48 | Cc1ccc(N(C)S(=O)(=O)c2c(-c3ccccc3)csc2C(=O)O)cc1 | · | -12% | · | -2.9% | 19%[46.1 µM] | 1% | · | -2%[46.1 µM]
49 | Cc1ccc(S(=O)(=O)N/N=C/C(C)(C)CO)cc1 | 9% | 43%[activator] | 15% | 6.5% | -2% | 3% | 4% | -7%[46.1 µM]
50 | CCCCN(C)C(=O)c1cn(CC)c2nc(C)ccc2c1=O | -5% | 17% | -6% | 0.2% | -10% | -12% | 7% | 3%
51 | CC1OC(Nc2cccc3ccccc23)C(O)C(O)C1O (stereo unspecified) | -5% | · | -9% | -13% | 7% | 8% | 13% | 1%
52 | COc1ccccc1C(=O)NCC(=O)N/N=C/c1cc(Br)ccc1OC(=O)/C=C\c1ccco1 | 7% | -17% | 13% | -4.1% | 10% | ? | -8% | 2%
53 | CCOC(=O)C(=O)NC(C)CCc1ccccc1 (stereo unspecified) | 11% | 0% | 14% | -2.2% | 17% | -7% | 5% | -22%
54 | Cc1ccc(-c2nc3sc(C(N)=O)c(N)c3c3c2CCCC3)cc1 | ? | -30% | 9% | -17% | ? | 25% | -29% | ?
55 | CN(C)c1ccc(/C=N/NC(=O)c2ccc(CN3CCOCC3)cc2)cc1Br | -9% | ? | -7% | · | ? | · | 0% | -2%[46.1 µM]
56 | COc1ccc(CCNC(=S)Nc2cc(C)cc(C)c2)cc1 | 2% | 0% | -21% | -8.2% | -2% | -14% | 22% | 1%
57 | Cc1cccc(-c2noc(CN(C(=O)CCc3ccccc3)C(C)C)n2)c1 | -43% | 30% | 6% | -4.9% | -25% | 7% | -5% | -8%
58 | COCc1cc(=O)oc2cc(NS(=O)(=O)c3ccc(C)cc3)ccc12 | -1% | -17% | -6% | · | 4% | · | -3% | 16%
59 | O=C(N/N=C/c1cccc(F)c1)c1csc2c1CCCC2 | -57% | 6% | 33% | -5.0% | ? | 9% | -8% | ?
60 | Cc1ccc(NC(=O)Cn2c(=O)n(CCC(=O)NCc3ccccc3Cl)c(=O)c3ccccc32)cc1 | · | -13% | · | 8.8% | 4%[46.1 µM] | 21% | · | -21%[46.1 µM]
